# Screens as filed in PubChem.
# FGF22 binding: binders of human FGF22 protein, primary screen, FGF22 synaptogenesis inhibitor project, biophysical, thermal shift, single point; recombinant FGF22 thermal shift, SYPRO orange fluorescence; percent of sucrose octasulfate shift, DMSO zero; 340,000 tested, 1.5% active; Fibroblast growth factor 22 (Homo sapiens), Q9HCT0; calls only at 9.99 µM;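 active means melting point raised past a set limit in the mean and every replicate; inconclusive means no clear call; three in four hits are not shown here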
# Target sequence (Q9HCT0 whole entry, looked up): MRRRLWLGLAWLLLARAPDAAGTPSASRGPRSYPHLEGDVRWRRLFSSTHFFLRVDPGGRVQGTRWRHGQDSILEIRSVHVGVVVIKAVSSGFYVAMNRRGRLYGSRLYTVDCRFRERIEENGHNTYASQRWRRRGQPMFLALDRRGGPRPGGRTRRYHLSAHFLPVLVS
# RanGTP-Impb inh: inhibitors of RanGTP-importin-beta interaction, primary screen, biochemical, FRET, CFP-Ran, YFP-importin-beta, homogeneous; AID 2216, 2009; cell-free CFP-Ran/YFP-importin-beta FRET ratio; inhibition, % (concentration not given with the values); Ran GTPase (GTP-bound) - importin-beta complex; 300,000 tested, 1.1% active;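 active means most replicates above 15%; inconclusive means exactly half above 15%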;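 further: 0% = DMSO wells and 100% = Ran loaded with GDP instead of GTP; wells of about 40 µL received 100 nL stock; the first replicate is given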
# UCH37 DUB inh: inhibitors of human UCH37 deubiquitinase, primary screen, biochemical, Ub-AMC cleavage, fluorescence; AID 588478, 2011; purified proteasome/UCH37; 330,000 tested, 0.33% active; inhibition, % (test concentration not listed);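 active means mean of two replicates above 20%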;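 further: 0% = compound-free wells with enzyme and 100% = wells lacking proteasome; stock transfer was 100 nL into about 20 µL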
# Target sequence (Q9Y5K5 whole entry, looked up): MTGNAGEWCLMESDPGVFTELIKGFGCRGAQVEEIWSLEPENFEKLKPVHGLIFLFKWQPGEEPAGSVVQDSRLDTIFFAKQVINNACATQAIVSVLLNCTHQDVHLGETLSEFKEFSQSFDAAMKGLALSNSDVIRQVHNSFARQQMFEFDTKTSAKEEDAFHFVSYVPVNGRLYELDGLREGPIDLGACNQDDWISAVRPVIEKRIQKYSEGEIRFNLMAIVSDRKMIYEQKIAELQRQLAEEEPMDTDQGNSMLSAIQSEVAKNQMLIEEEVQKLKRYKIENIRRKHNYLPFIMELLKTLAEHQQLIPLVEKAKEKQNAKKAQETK
#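 assay system = human UCH37 enzyme supplied as purified proteasome complex | amount = proteasome at 0.15 nM in the dispensed enzyme solution | schedule = 30 min compound-proteasome preincubation then 25 min substrate reaction, room temperature | measured by = fluorescence, ex 355 nm, em 460 nm | benchmarks = no-proteasome wells (full inhibition) and compound-free wells (no inhibition)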
# HNF4A DNA FP: change in binding of human HNF4A to DNA, primary screen, biochemical, fluorescence polarization, FITC-DNA; activity change, % at 10 µM; Hepatocyte nuclear factor 4-alpha (Homo sapiens), P41235; 1 h; 360,000 tested, 0.3% active; in the data active means activity change above about 30%, passing the limit was not always enough;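 further: controls were the assay level and a saturating level of protein; the project sought stronger binding though the title names inhibitors; some compounds called inactive have numbers as strong as hits; positive values seem to mean higher polarization but the record does not say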
# E coli growth: E. coli growth inhibition, primary screen, OD600; 330,000 tested, 0.21% active; AID 1053175, 2014; OD600 absorbance (concentration not given with the values); Escherichia coli growth, 23 h; hits give low values;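 active means OD600 absorbance below the run mean of sample wells minus 3.6 SD, in any replicate, cut at about 0.56 in these data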;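 further: stock transfer was 300 nL into about 60 µL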
# Vif TR-FRET: inhibitors of Vif binding to APOBEC3G peptide, primary screen, biochemical, TR-FRET, GST-Vif 1-94, biotin-A3G peptide, dose response retest (AID 1117319); TR-FRET GST-Vif / biotin-A3G peptide binding; higher % means a stronger effect; test concentration not given here; strong numbers were not always called active; inhibition, %; hits with a dose series show IC50 in µM; 260,000 tested, 0.57% active;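 active means above the screen mean plus three standard deviations and confirmed in dose response; inconclusive means results disagree or hit not tested in dose response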;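 further: Vif residues 1-94 fused to GST binding biotinylated APOBEC3G peptide 110-148; 0% = full assay without inhibitor and 100% = GST in place of GST-Vif; retest series ran down from 100 µM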
# MLL AF4-AF9 inh: inhibitors of AF4 peptide binding to AF9, primary screen, biochemical, AlphaScreen, biotin-AF4 peptide, FLAG-AF9, single point; inhibition, % at 10 µM; 350,000 tested, 0.47% active; AID 651704, 2012;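 active means every replicate reaching a set inhibition limit, whatever the replicate mean, cut at about 25% in these data; inconclusive means mean inhibition reaches that limit but some replicates miss it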;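 further: 0% = plate neutral control median and 100% = total signal loss; the record names both 10 and 1 µM as test concentration; the first replicate is given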
# Target sequence (P42568 whole entry, looked up): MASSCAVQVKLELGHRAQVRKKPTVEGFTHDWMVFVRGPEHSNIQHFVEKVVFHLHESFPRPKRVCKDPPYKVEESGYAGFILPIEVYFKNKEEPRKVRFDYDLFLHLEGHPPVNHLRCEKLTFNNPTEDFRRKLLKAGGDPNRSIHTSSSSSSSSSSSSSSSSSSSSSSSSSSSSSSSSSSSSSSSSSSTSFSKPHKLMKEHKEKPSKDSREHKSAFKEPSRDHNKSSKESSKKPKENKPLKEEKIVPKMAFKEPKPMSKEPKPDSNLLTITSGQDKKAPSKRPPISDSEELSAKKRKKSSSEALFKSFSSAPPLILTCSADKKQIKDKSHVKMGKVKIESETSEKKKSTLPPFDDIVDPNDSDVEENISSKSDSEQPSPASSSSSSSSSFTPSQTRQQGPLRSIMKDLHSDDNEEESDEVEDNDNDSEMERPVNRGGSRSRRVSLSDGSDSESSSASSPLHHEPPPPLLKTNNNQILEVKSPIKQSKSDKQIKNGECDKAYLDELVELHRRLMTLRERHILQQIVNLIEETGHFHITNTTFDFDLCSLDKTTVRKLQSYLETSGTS
# The depositor's hits bear a star; i = inactive; ? = inconclusive; . = no result given; + = active, no number; & = joins results of further samples. Some of the compounds tested, so the mix of outcomes need not match the whole.
# Value order: FGF22 binding, RanGTP-Impb inh, UCH37 DUB inh, HNF4A DNA FP, E coli growth, Vif TR-FRET, MLL AF4-AF9 inh
CCN1CCN(Cc2ccccc2NC(=O)Nc2ccc(C)cc2)CC1
→ ., -2.8, 1.1, 0.4, 0.78, 1%, .
O=C(CCCCCn1c(=S)[nH]c2ccc(N3CCOCC3)cc2c1=O)NCc1ccc2c(c1)OCO2
→ ., 0.0, -94, -0.9, 0.7, -41%, -1.2
Cc1ccc(C(=O)NC(=S)NNC(=O)c2ccccc2[N+](=O)[O-])cc1
→ ., ., 3.0, -0.4, 0.72, -6%, .
O=C(CSc1nnc(-c2cccc(S(=O)(=O)N3CCCCC3)c2)o1)NCCC1=CCCCC1
→ ., -1.5, 2.7, 0.8, 0.65, -2%, .
O=C(CSc1nnc(-c2ccc3c(c2)OCO3)o1)Nc1ncc(C(F)(F)F)cc1Cl
→ i, -2.9, -9.8, 7.3, 0.71, ., -2.7
CCN1CCc2c(sc(NC(=O)c3ccc(S(=O)(=O)N(C)CC4CCCO4)cc3)c2C(N)=O)C1 (stereo not given)
→ i, 48*, 6.6, 1.5, 0.69, 4%, 2.8
CC1CCN(C(=O)CN2C(=O)C(=O)N(C(C)C)C2=O)c2ccccc2S1 (stereo not given)
→ i, ., ., 1.2, ., 11%, -4.7
CCN(CC)S(=O)(=O)c1ccc(NC2CCCc3ccccc32)nc1 (stereo not given)
→ ., 5.6, 0.6, 3.6, 0.73, 9%, .
Cc1ccccc1OC(C)C(=O)N1CCN(c2ccccn2)CC1 (stereo not given)
→ i, 5.5, 0.5, -1.8, 0.71, -6%, -3.9
O=C(OCc1ccccc1F)c1cnc(Cl)c(Cl)c1
→ i, -3.3, 5.2, 0.1, 0.65, ., 1.8
COc1ccc(CN=CC2=C(O)CNC2=O)cc1OC
→ ., ?, 4.9, 1.2, 0.74, 1%, .
COCCNC(=O)c1cccc(OC2CCN(Cc3ccccc3OC(F)F)CC2)c1
→ i, 0.4, -0.3, 0.6, 0.71, ., -1.3
COc1ccccc1CCNC(=O)CSc1nnc2ccc(-c3ccncc3)nn12
→ i, 1.9, 4.0, -1.8, 0.73, -1%, -33
COc1cccc(C(=O)Nc2nnc(CCS(=O)(=O)c3ccc(C)cc3)s2)c1
→ i, 3.3, 1.9, 1.1, 0.71, 0%, -1.0
CCCNC(=O)CSc1n[nH]c(=O)n1CCc1ccccc1
→ i, 2.1, 2.4, 3.2, 0.7, 5%, -5.7
Cc1ccc(N(CC(=O)Nc2cc(C)cc(C)c2)S(=O)(=O)c2c(C)noc2C)cc1
→ i, ?, 0.6, -4.7, 0.74, ., 0.4
CCOC(=O)C(C)n1nc(C)c2sc3ccccc3c2c1=O (stereo not given)
→ ., 8.6, -4.3, 2.0, 0.72, -3%, .
C/C(=N/NC(=O)c1ccco1)c1ccc(NC(=O)c2ccc(F)cc2)cc1
→ ., 3.6, ., -2.0, ., 3%, .
CCS(=O)(=O)c1ccc(O)c(NC(=O)Nc2ccccc2)c1
→ ., -1.2, 1.1, 3.5, 0.6, 10%, .
Cc1cc2nc3c(nc2cc1C)C1(C(=O)N(C)C)CCC3(C)C1(C)C (stereo not given)
→ ., -0.5, 6.9, 4.1, 0.66, 1%, .

# Profiles from above. Screens in order: FGF22 binding	RanGTP-Impb inh	UCH37 DUB inh	HNF4A DNA FP	E coli growth	Vif TR-FRET	MLL AF4-AF9 inh
# CCS(=O)(=O)c1ccc(O)c(NC(=O)Nc2ccccc2)c1 is entered as .	-1.2	1.1	3.5	0.6	10%	.
# Cc1ccccc1OC(C)C(=O)N1CCN(c2ccccn2)CC1 (stereo not given) is entered as i	5.5	0.5	-1.8	0.71	-6%	-3.9
# O=C(CSc1nnc(-c2ccc3c(c2)OCO3)o1)Nc1ncc(C(F)(F)F)cc1Cl is entered as i	-2.9	-9.8	7.3	0.71	.	-2.7
# CCN(CC)S(=O)(=O)c1ccc(NC2CCCc3ccccc32)nc1 (stereo not given) is entered as .	5.6	0.6	3.6	0.73	9%	.
# COc1ccccc1CCNC(=O)CSc1nnc2ccc(-c3ccncc3)nn12 is entered as i	1.9	4.0	-1.8	0.73	-1%	-33

# Going on with the list.
# Value order: FGF22 binding, RanGTP-Impb inh, UCH37 DUB inh, HNF4A DNA FP, E coli growth, Vif TR-FRET, MLL AF4-AF9 inh
Cc1csc(NC(=O)c2ccc(S(C)(=O)=O)cc2)n1
→ i, 7.6, 5.6, 0.2, 0.7, ., 1.0
O=C(CN1C(=O)c2cccc([N+](=O)[O-])c2C1=O)N1CCN(S(=O)(=O)c2ccccc2)CC1
→ i, ., ., -3.1, ., -9%, -4.2
CC(=O)Nc1ccc(S(=O)(=O)N(C)CC(=O)N(C)Cc2sccc2C)cc1
→ i, ., 4.6, 4.1, 0.67, -12%, -0.2
COc1ccc(NC(=O)CC2SC(N3CCOCC3)=NC2=O)c(OC)c1 (stereo not given)
→ i, ., 1.7, -3.8, 0.68, 14%, 0.3
Cn1c(=O)[nH]c(=O)c2c1nc1n2CCCN1Cc1ccccc1
→ i, ?, 1.1, 3.9, 0.66, 7%, .
O=c1cc(CSc2nc(NCc3ccc(Cl)cc3)c3ccccc3n2)nc2ccc(Cl)cn12
→ i, ., -35, -1.4, 0.73, ., -2.6
O=C1c2ccccc2C(Nc2ccc3c(c2)OCO3)N1Cc1ccc2c(c1)OCO2 (stereo not given)
→ i, -22, 3.9, 3.2, 0.74, 5%, 17
O=c1[nH]c2cc(Cl)c(Cl)cc2o1
→ i, ., 4.1, 0.7, 0.61, -5%, 2.5
COc1ccccc1C(CNC(=O)c1ccc(C)c(S(=O)(=O)N2CCCCC2)c1)N1CCCC1 (stereo not given)
→ i, ., 5.4, 11, 0.68, 4%, 1.3
CNC(=O)C[C@H]1C(=O)N(Cc2ccccc2)C[C@@H]1C
→ i, ., ., -1.1, ., 2%, -1.3
Cc1cc(C(=O)N/N=C/c2ccc(N(C)C)o2)cs1
→ i, 1.2, ., -4.0, ., 13%, -4.3
C[C@@H]1CN([C@@H](C)CO)C(=O)CCCn2nncc2CO[C@H]1CN(C)C(=O)Nc1ccc(N2CCCCC2)cc1
→ i, ., ., -6.8, ., 0%, -1.3&16&9.6
CCOC(=O)n1c(=O)n(Cc2ccc(Cl)cc2Cl)c2ccccc21
→ ., -0.6, 1.5, 2.1, 0.76, -2%, .
COc1ccc(C2Nc3ccccc3C(=O)N2c2ccccc2)cc1COc1ccccn1 (stereo not given)
→ i, 3.8, -361, -1.3, 0.64, 0%, -0.6
COCCN(C(=S)Nc1cc(C)ccc1C)C(C)c1cccnc1 (stereo not given)
→ i, 0.8, 1.2, -0.4, 0.73, ., 1.9
Cc1ccnc(NC(=O)c2cc(S(=O)(=O)NCc3ccccc3)ccc2C)c1
→ i, ., 2.5, -3.1, 0.64, -7%, 0.7
O=C(Cn1c(=S)[nH]c2ccccc2c1=O)N1CCc2ccccc2C1
→ i, 2.4, 0.5, -2.6, 0.71, -332%, -1.7
CC(c1ccccn1)N(CCN(C)C)C(=S)Nc1cccc(F)c1 (stereo not given)
→ ., -0.1, 1.7, 3.5, 0.72, 9%, .
O=C(Nc1nnc(-c2ccco2)o1)c1ccc(Br)s1
→ i, ., ., -6.8, ., -5%, -0.3
COc1cccc(C(=O)C2CCCN(Cc3cn(CC(N)=O)c4ccccc34)C2)c1 (stereo not given)
→ i, -0.9, 2.9, 1.6, 0.72, 10%, 1.3
COc1ccc(CCNC(=O)C2CCN(C(=O)c3ccc(F)cc3)CC2)cc1OC
→ i, -0.4, 5.0, 0.2, 0.67, -11%, -0.1
CN(CC(=O)NCc1ccco1)S(=O)(=O)c1ccc2c(c1)n(C)c(=O)c(=O)n2C
→ ., 1.3, -1.9, 0.4, 0.73, 6%, .
CCN(CC)CCN1C2=C(C(=O)CC(C)(C)C2)C(c2cccc(F)c2)C2=C1CC(C)(C)CC2=O
→ i, 96*, -460, 5.8, 0.69, 0%, -1.9
CC(=O)c1c(C)[nH]c(C(=O)Nc2ccc3c(c2)OCCO3)c1C
→ ., -2.2, 1.9, 4.0, 0.71, 4%, .
O=c1c(Cc2ccccc2)c(O)ccn1C1CCCCCCC1
→ i, 4.6, -1.0, 3.3, 0.67, -3%, 0.6
COc1ccc(C(=O)C2CCCN(S(=O)(=O)c3cccnc3)C2)c(C)c1 (stereo not given)
→ i, -2.6, 2.6, -0.7, 0.66, 5%, -5.8
O=C(C1=C(O)C(=O)N(CCN2CCOCC2)C1c1cccc(Br)c1)c1cccs1 (stereo not given)
→ i, -2.0, 12, 2.1, 0.74, 0%, 2.0
CCOC(=O)c1oc2ccccc2c1CN1CCOCC1
→ ., 4.9, 5.8, 0.1, 0.7, -2%, .
COc1ccccc1NC(=O)Cc1cccs1
→ ., 0.1, 4.8, 2.1, 0.72, 0%, .
CS(=O)(=O)N1CCCCC1c1cc(C(=O)Nc2ccccc2Cl)no1 (stereo not given)
→ i, ., ., 2.0, ., ., -9.9
CCCOC(=O)c1ccc(Nc2nc(C)cc(=O)[nH]2)cc1
→ ., 1.9, 2.3, 4.3, 0.63, 6%, .
COc1ccc(-n2c(C)cc(C(=O)CN3C(=O)NC4(CCCc5sccc54)C3=O)c2C)cc1 (stereo not given)
→ ., ., 2.7, 3.4, 0.68, -6%, .
O=C(NCc1ccc(Cl)cc1)c1cccc(NC2=NC3CS(=O)(=O)CC3S2)c1 (stereo not given)
→ i, -2.2, 0.8, -0.1, 0.8, ., -9.9
COc1cc2nc(CN3CCN(C(C)=O)CC3)[nH]c(=O)c2cc1OC
→ i, 1.3, 1.1, 0.0, 0.67, -2%, -0.8
COCC1CCN(C(=O)C2CCC(=O)N(Cc3ccc(Cl)cc3)C2)CC1 (stereo not given)
→ i, -3.1, 2.8, 3.8, 0.67, ., 0.5
O=C(COc1ccc(F)cc1)N(Cc1cccc(Br)c1)C1CCS(=O)(=O)C1 (stereo not given)
→ i, -0.3, 6.6, -1.1, 0.68, ., -3.3
CC(=O)c1c(C)nc(-c2ccc(OCC(=O)Nc3ccc(F)cc3)cc2)n1O
→ +, 1.4, 3.3, 2.7, 0.63, 0%, 2.4
CC(Oc1ccccc1)C(=O)N/N=C/c1ccccn1 (stereo not given)
→ ., 0.0, ., 0.4, ., 3%, .
CC(=O)N1CCOc2ccc(S(=O)(=O)N3CCCC(C)C3)cc21 (stereo not given)
→ i, -2.8, -3.3, -0.2, 0.7, ., 0.1
COc1ccc(N2C(=O)CC(C)(C)CC2=O)cc1OC
→ i, 3.7, 4.5, -1.3, 0.66, -11%, 0.2
CC1CCCCN1C(=O)CN1C(=O)NC2(CCCCC2C)C1=O (stereo not given)
→ i, ., 4.3, -0.6, 0.7, 19%, 1.5
Cn1c(N)c(C(=O)c2ccc(Cl)cc2)c(=O)n(C)c1=O
→ i, -5.2, 1.0, 0.0, 0.69, -1%, -5.7
CC(=O)N=Nc1[nH]c(N)c2ccccc12
→ i, 1.1, 9.5, 4.2, 0.71, -3%, -3.1
COC(=O)c1c(NC(=O)C2CC=CCC2C(=O)O)sc(C(N)=O)c1C (stereo not given)
→ ., 5.4, -2.7, 1.9, 0.76, 6%, .
O=C(NCc1cccnc1)c1ccc(-c2cc3ccccc3oc2=O)cc1
→ i, -0.8, -117, -5.4, 0.7, ., 1.0
O=C(NC1CC2CCCC(C1)N2S(=O)(=O)c1ccccc1)c1ccccc1 (stereo not given)
→ ., -3.6, 2.9, 0.1, 0.68, 27%, .
C=CCn1c(SCC(=O)Nc2ccc(C(=O)OCC)cc2)nnc1-c1sc(N)nc1C
→ ., -1.3, 2.6, -1.2, 0.77, -5%, .
